YopH PTP inh = inhibitors of Yersinia enterocolitica YopH tyrosine phosphatase | 140,000 compounds, 0.16% hits | inhibition, %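 (about 10 µM by stock and volumes)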 | fluorescence Ex485/Em525;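 active = inhibition of 50% or more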;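 note: controls were vehicle for no effect and minimum signal wells for full effect; inactives centre near -20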
Arbovirus anti = antivirals against arbovirus infection | arbovirus infection cell-based antiviral screen | inhibition, % at 10 µM | 200,000 compounds, 0.37% hits | AID 1251;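 active = inhibition from about 30%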;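 note: bluetongue infection of BSR cells; cell survival read as ATP light after 72 h; 0% = infected wells without compound and 100% = uninfected wells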
Mtb H37Rv = M. tuberculosis H37Rv growth inhibitors, H37Rv strain (AID 1626) | M. tuberculosis H37Rv growth inhibition; higher % means a stronger effect | inhibition, % at 10 µM; hits with a dose series show IC50 in µM | 220,000 compounds, 0.95% hits;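 active = confirmed in a dose series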;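 note: bacteria incubated seven days before Alamar blue readout; 0% = bacteria only wells and 100% = bacteria with antibiotic wells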
RecA intein inh = inhibitors of M. tuberculosis RecA intein splicing; cell-free RecA intein splicing, fluorescence; inhibition, %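 (about 9 µM by stock and volumes)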; 290,000 compounds, 0.75% hits; AID 2221; in the data active = inhibition above about 30%;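 note: 0% = vehicle wells and 100% = reference inhibitor control wells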
Target sequence (P9WHJ3 whole entry, looked up): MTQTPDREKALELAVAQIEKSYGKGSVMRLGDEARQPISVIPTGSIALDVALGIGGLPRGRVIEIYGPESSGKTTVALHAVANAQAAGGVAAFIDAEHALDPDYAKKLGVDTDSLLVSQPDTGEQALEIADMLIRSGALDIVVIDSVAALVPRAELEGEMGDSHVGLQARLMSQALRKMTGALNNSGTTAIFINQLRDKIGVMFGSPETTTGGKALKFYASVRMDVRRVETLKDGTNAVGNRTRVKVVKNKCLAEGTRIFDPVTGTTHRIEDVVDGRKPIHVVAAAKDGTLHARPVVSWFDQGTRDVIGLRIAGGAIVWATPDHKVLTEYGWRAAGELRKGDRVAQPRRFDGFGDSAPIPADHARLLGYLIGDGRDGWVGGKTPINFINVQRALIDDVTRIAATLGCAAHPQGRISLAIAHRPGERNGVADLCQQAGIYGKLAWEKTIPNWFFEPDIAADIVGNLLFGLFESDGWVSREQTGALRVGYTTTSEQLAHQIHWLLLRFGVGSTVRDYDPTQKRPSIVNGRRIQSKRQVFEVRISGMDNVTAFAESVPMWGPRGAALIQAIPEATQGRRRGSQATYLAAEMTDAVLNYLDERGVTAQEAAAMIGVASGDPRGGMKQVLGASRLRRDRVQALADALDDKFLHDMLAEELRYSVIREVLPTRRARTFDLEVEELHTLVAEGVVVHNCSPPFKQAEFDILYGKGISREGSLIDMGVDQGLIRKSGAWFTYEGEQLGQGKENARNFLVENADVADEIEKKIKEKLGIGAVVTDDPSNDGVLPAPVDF
Mtb betalactam = beta-lactam sensitization of Mtb H37Rv | M. tuberculosis H37Rv growth with meropenem, percent inhibition; hits of this screen are not shown here | inhibition, % at 25 µM | 330,000 compounds, 0.27% hits;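 active = about 74% or more and at least 40 points above the plate without the antibiotic, then above 30% in a dose series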;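 note: growth measured after seven days incubation then overnight dye step; 0% = bacteria only wells and 100% = bacteria with antibiotic; twin plates without the antibiotic show which effects depend on it; some results filed as inactive read as strong as hits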
Arbovirus anti repeat = second read-out of Arbovirus anti, no call of its own (marks repeat the call); inhibition, %; measured here: 10K subset replicate screen; many hits read low in the repeat;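 first of two repeat runs on a subset; 0% = infected and 100% = uninfected wells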
* marks the source's active call; other numbers are inactive results; nt = no result given.

SMILES | YopH PTP inh | Arbovirus anti | Mtb H37Rv | RecA intein inh | Mtb betalactam | others
COc1cc(/C=C2/C(=O)NN(c3cccc(Cl)c3)C2=O)cc(Br)c1O | nt | nt | nt | 9.9 | 61
COc1cccc(NC(=O)c2ccccc2-c2nc(-c3cccc(C)c3)no2)c1 | -42 | 0 | 19% | nt | -3
Cc1ccc(NC(=O)C(C)N2CCOCC2)c(C(=O)c2ccccc2)c1 (centres undefined) | -47 | 7 | -5% | -2.0 | -12 | Arbovirus anti repeat=-3
O=c1cc(CSc2ccc([N+](=O)[O-])cc2)nc2sccn12 | nt | -3 | -4% | 2.4 | -7
CN(CC1CCCO1)S(=O)(=O)c1ccc(C(=O)NCc2ccccc2)cc1 (centres undefined) | nt | 4 | 3% | -0.8 | -5
COc1cccc(NC(=O)N2CCc3ccccc3C2)c1 | nt | nt | nt | 4.1 | 1
COCCCNC(=S)N1CCCN(c2nc3c(C)c(C)ccc3cc2C#N)CC1 | nt | 0 | 9% | -31 | -6
Cc1cc(NC(=O)CN2CCCCC2C)nc2c1c(=O)oc1ccccc12 (centres undefined) | nt | 4 | nt | 0.9 | 6 | Arbovirus anti repeat=3
O=C(O)Cc1ccc2sc(-c3ccccc3)nc2c1 | -17 | -3 | -2% | 0.8 | 3
Cc1cc2cc(CN(Cc3cccs3)C(=S)NCc3ccco3)c(=O)[nH]c2cc1C | 2 | -2 | 6% | 1.5 | 7
CCc1nnc(NS(=O)(=O)c2ccc(NC(=O)CCC(=O)OC)cc2)s1 | nt | nt | nt | -3.2 | -1
Cc1cc(C(=O)Nc2nnc(C3CCCCC3)s2)cs1 | -34 | -1 | 0% | 1.4 | -6 | Arbovirus anti repeat=4
Oc1cc2c(cc1CN1CCc3ccccc3C1)OCO2 | nt | nt | nt | -5.1 | -10
O=C(Cc1cccc(C(F)(F)F)c1)NCC(=O)Nc1cc(Cl)ccc1Cl | nt | nt | nt | 0.9 | 8
COc1ccc(Cc2noc(CN3CCCC(OCc4ccccn4)C3)n2)cc1OC (centres undefined) | nt | 2 | 2% | 2.0 | 0
Nc1nnc(-c2cn(-c3ccccc3)nc2-c2ccc(Cl)cc2)o1 | nt | nt | 0% | 0.3 | 72
Cc1cc(SC#N)cc(C)c1NC(=O)CCl | -14 | 7 | 1% | 13 | 58
CCN(CC)S(=O)(=O)c1ccc2c(c1)N(CC(=O)Nc1cccnc1Cl)C(=O)CO2 | nt | 5 | -5% | nt | -2
Clc1ccc(-n2ncc3c(NCC4CCCO4)ncnc32)cc1 (centres undefined) | -22 | -12 | 8% | 1.5 | 11 | Arbovirus anti repeat=-14
Fc1cc(Br)ccc1NC(=S)Nc1cccnc1 | nt | 13 | 1% | 3.2 | 3

A section from further up, as a working copy:
SMILES | YopH PTP inh | Arbovirus anti | Mtb H37Rv | RecA intein inh | Mtb betalactam | others
Nc1nnc(-c2cn(-c3ccccc3)nc2-c2ccc(Cl)cc2)o1 | nt | nt | 0% | 0.3 | 72
Cc1cc(SC#N)cc(C)c1NC(=O)CCl | -14 | 7 | 1% | 13 | 58
CCN(CC)S(=O)(=O)c1ccc2c(c1)N(CC(=O)Nc1cccnc1Cl)C(=O)CO2 | nt | 5 | -5% | nt | -2
Clc1ccc(-n2ncc3c(NCC4CCCO4)ncnc32)cc1 (centres undefined) | -22 | -12 | 8% | 1.5 | 11 | Arbovirus anti repeat=-14
Fc1cc(Br)ccc1NC(=S)Nc1cccnc1 | nt | 13 | 1% | 3.2 | 3

Back to the main list, repeating the 2 entries before the break.
SMILES | YopH PTP inh | Arbovirus anti | Mtb H37Rv | RecA intein inh | Mtb betalactam | others
Clc1ccc(-n2ncc3c(NCC4CCCO4)ncnc32)cc1 (centres undefined) | -22 | -12 | 8% | 1.5 | 11 | Arbovirus anti repeat=-14
Fc1cc(Br)ccc1NC(=S)Nc1cccnc1 | nt | 13 | 1% | 3.2 | 3
Cc1cc(Br)ccc1NC(=O)CN1C(=O)CCC1=O | -5 | 13 | -4% | -2.9 | -5
CC(=O)N/C(=C\c1ccccc1Cl)C(=O)O | -19 | -5 | -1% | -3.7 | 6
Cn1c(=O)c2c(SCC(=O)Nc3ccc4c(c3)OCCO4)nc(CC(C)(C)C)nc2n(C)c1=O | -23 | -3 | 6% | 8.0 | 2
Fc1ccc(C(CCNCc2cccs2)c2ccco2)cc1 (centres undefined) | nt | nt | 2% | 3.5 | -8
Cc1ccc(CCNC(=O)CN(C)S(=O)(=O)c2cnc[nH]2)cc1 | -38 | -4 | -12% | -3.9 | 2
C[C@H](NC(=O)[C@H]1N2C(=O)c3ccccc3C2SC1(C)C)C(=O)N1CCN(C)CC1 (some centres undefined) | nt | nt | nt | -0.2 | -5
Cc1nn(-c2ccc(N3CCCCC3)nn2)c(C)c1CCC(=O)Nc1ccc(F)c(F)c1 | nt | nt | nt | 2.0 | 8
CCOC(=O)c1cc2sc(C)cc2n1CC(=O)N(CC)CC | -42 | -3 | -4% | 0.1 | 0
CC1(C)CC(=O)C=C(NCCCNC2CCCCC2)C1 | -39 | -1 | -1% | -1.5 | 4 | Arbovirus anti repeat=3
N#Cc1c(-c2ccncc2)c2c([nH]c1=S)CCCC2 | -12 | -1 | 8% | -6.2 | 5
COc1cc(/C=C/c2nc3ccccc3c(=O)n2-c2cccc(O)c2)ccc1O | nt | nt | nt | -4.2 | 43
Cc1ccc(C(C)C)c(OCc2nc(-c3nonc3N)no2)c1 | -33 | -18 | 17% | 3.5 | 3 | Arbovirus anti repeat=9
CCC1CCCCN1Cc1ccc(N)cc1 (centres undefined) | nt | 1 | 1% | 0.5 | 1
Cc1cc(C)c(S(=O)(=O)N2CCCOC2CNC(=O)C(=O)NCc2ccncc2)c(C)c1 (centres undefined) | -2 | 7 | 5% | -1.3 | 9
CN(C)c1cc(N)c2ccccc2n1 (tested in a mixture with another compound) | -18 | 4 | -10% | 2.9 | -10
NC(=O)CCC(=O)N1CCCC(C(=O)c2ccc(C(F)(F)F)cc2)C1 (centres undefined) | nt | nt | nt | -2.4 | -4
Cc1cccc(Nc2c(-c3ccc(N4CCOCC4)cc3)nc3ncccn23)c1 | -17 | -11 | nt | -17 | 1
COc1ccccc1NC(=O)N1CCN(C(=O)Nc2ccccc2OC)CC1 | nt | nt | -8% | -0.3 | 0
CCOC(=O)CNC(=O)C1(/C=C/c2ccccc2)CC(=O)N1c1ccc(OC)cc1 (centres undefined) | nt | nt | nt | -1.6 | 5
O=C(Nc1cc(N2CCCCC2)ncn1)c1ccc(F)cc1 | nt | -13 | 3% | 0.2 | 8
CCOC(=O)c1c(NC(=O)Cn2nnc(-c3ccccc3Cl)n2)sc(C)c1C | -12 | 4 | nt | 0.4 | 3
CCOc1ccc(NC(=O)CN2CCN(CC(=O)Nc3ccc(OC)cc3)CC2)cc1 | -36 | 6 | 4% | -0.9 | 72
O=C(COC(=O)CCCNC(=O)c1ccc(Cl)cc1)Nc1cc(Cl)c(Cl)cc1Cl | -18 | 8 | 10% | 3.7 | 3
CCC(=O)Nc1nnc(S(=O)(=O)N(CC)c2ccc(OC)cc2)s1 | nt | nt | nt | -1.2 | 0
Cc1ccc(NC(=O)c2ncc(Cl)c(Cl)c2Cl)cc1C | nt | 12 | 5% | nt | 6
CC/C(=N/NC(=O)c1ccc(Br)o1)c1ccc(Cl)cc1 | -21 | -5 | 2% | 1.6 | 6
CCOC(=O)c1ccc(N=c2ssnc2Cl)cc1 | nt | 8 | 80% | -0.5 | nt
CC(C)Nc1ccc(C(CC(N)=O)NC(=O)Cc2cccc3ccccc23)cc1[N+](=O)[O-] (centres undefined) | nt | nt | -8% | -4.1 | 3
CCc1ccc(CNc2ccc3c(c2)ncn3C(C)(C)C)cc1 | nt | nt | nt | 3.4 | 100
Cn1c(=O)oc2cc(S(=O)(=O)NCc3ccc(Cl)cc3)ccc21 | nt | nt | nt | 2.2 | -2
CCOc1ccc(OCCC(=O)OCC(=O)NC2CC2)cc1 | nt | nt | nt | -0.3 | -1
Cc1ccc(C(C)C)cc1OCC(=O)N1CCN(C(=O)c2ccco2)CC1 | nt | nt | nt | -0.1 | 2
CC(C)CN(C(=O)C1CC1)C1CCS(=O)(=O)C1 (centres undefined) | nt | nt | nt | 16 | -14
Cc1cccnc1-n1c(CCN2C(=O)c3ccccc3C2=O)nc2ccccc2c1=O | -19 | 2 | -3% | 6.5 | -8 | Arbovirus anti repeat=-5
Cc1cc(C)cc(NC(=O)CSc2nnnn2-c2cccnc2)c1 | nt | nt | nt | -0.3 | -4
CCOC(=O)CC(NC(=O)C(CC)c1ccccc1)c1ccccc1Cl (centres undefined) | -9 | -1 | 2% | -0.9 | 4
CCS(=O)(=O)N1CCC(C(=O)Nc2cc(Cl)ccc2O)CC1 | 20 | -7 | -2% | 0.4 | -12
COc1cc(C=C(C(C)=O)C(C)=O)ccc1O | -10 | 3 | -2% | 0.5 | -8
CCOC(=O)CNC(=O)c1cc(OC)cc(OC)c1 | nt | 0 | 2% | -1.1 | -11
Cc1ccc(-c2nc(CN(C)C3CCOCC3)c(C)o2)s1 | nt | -4 | -2% | -2.6 | -2
COc1cc(C2C(C(=O)c3ccc(C)o3)=C(O)C(=O)N2c2cc(C)on2)ccc1OCc1ccccc1 (centres undefined) | nt | nt | nt | 4.1 | 43
Cn1c(=O)c(C#N)c(-c2ccccc2)n2cnnc12 | -26 | 7 | -3% | nt | 10
O=C(NCCc1ccccc1)c1cccnc1 | -10 | 1 | 85% | -3.8 | -3
CC1CN(C(=O)COC(=O)c2ccc(F)cc2Cl)CC(C)O1 (centres undefined) | nt | nt | nt | 1.0 | 6
O=C(CSc1nc(O)cc(=O)n1-c1ccccc1)c1ccc(Br)cc1 | nt | 0 | -6% | 2.1 | -5
COC(=O)c1ccc(C)c(NC(=O)Cc2ccc([N+](=O)[O-])cc2)c1 | nt | -8 | 4% | -1.5 | -6
O=C(c1ccc(-c2ccccc2)cc1)N1CCC(C(=O)N2CCCC2)CC1 | -12 | -1 | -12% | -0.4 | -5
CN(C)c1ccc(/C=c2\sc3nc(-c4ccccc4)nn3c2=O)cc1 | -18 | 7 | nt | 1.8 | nt
COc1cc(N2C(=O)CSC23C(=O)Nc2ccccc23)cc(OC)c1OC (centres undefined) | -2 | 0 | 1% | -1.8 | -5
Cc1cccc(/C=N/n2c(C3CCCCC3)n[nH]c2=S)c1 | nt | nt | nt | -0.4 | 7
Next section
SMILES | YopH PTP inh | Arbovirus anti | Mtb H37Rv | RecA intein inh | Mtb betalactam | others
COc1ccc(C)cc1S(=O)(=O)N(C)CC(=O)Nc1ccc2c(c1)OCCO2 | -10 | 3 | -8% | 1.5 | -11
CSc1ccc(/C=C/C(=O)c2ccc(NC(=O)Cc3ccccc3)cc2)cc1 | -29 | -4 | 4.7µM* | -4.7 | 99
O=C1C=C(NCCN2CCOCC2)C(=O)c2cnccc21 | 101* | -48 | 11% | 96* | 18
O=C(NCc1ccc(Cl)cc1Cl)C(=O)N1CCCCC1 | -35 | -3 | -5% | -1.9 | -3
CC(=O)n1cc([C@@H]2C=C(C(=O)O)O[C@H](OCc3ccc(CO)cc3)C2)c2ccccc21 | nt | 4 | -7% | 2.2 | -8
C=CCOC(=O)c1ccc(-n2cnc(C)n2)nc1 | nt | -3 | 34% | 1.4 | 4
CCOC(=O)c1cnn2c(C(F)(F)F)cc(-c3cn(C)nc3C)nc12 | -33 | 5 | -12% | -6.1 | -6
Cc1ccc2[nH]c3c(=O)n(CCN4CCOCC4)cnc3c2c1 | -14 | 0 | -5% | -2.8 | 3
CCSc1nc2sc3c(c2c(=O)[nH]1)CCCC3 | -2 | -7 | -2% | -1.9 | 6
Cc1cc(C(=O)CSc2nc3ccccc3c(=O)n2C)c(C)n1CC1CCCO1 (centres undefined) | nt | -2 | 4% | -0.4 | nt
O=C(NNS(=O)(=O)c1ccc(Br)cc1)c1ccccc1-n1cccc1 | nt | nt | nt | -13 | 0
CCCCC(CC)C(=O)NCc1ccc(F)cc1 (centres undefined) | -27 | -1 | 2% | 0.7 | -3
CC(=O)N(/C=C1\SC(=S)N(c2ccccc2)C1=O)c1ccccc1 | nt | nt | -8% | 1.2 | -1
COCCn1nnnc1C(c1cccc(C(F)(F)F)c1)N1CCOCC1 (centres undefined) | 5 | 1 | -2% | 4.0 | -18
CN(c1ccccc1)S(=O)(=O)c1ccc(C(=O)Nc2ccncc2)cc1 | nt | nt | nt | 4.3 | 2
CC(=O)Nc1ccc(NC(=O)[C@@H]2CCCN2S(=O)(=O)c2ccc3c(c2)OCCO3)cc1 | nt | 18 | 7% | -1.6 | -7
COc1cc2c(c(OC)c1O)C(=O)CO2 | nt | nt | 3% | -5.2 | 2
O=C(CSc1nnc(CNc2ccccc2)o1)N1CCCc2ccccc21 | -9 | 7 | nt | 4.5 | -1
CCOC(=O)c1ccccc1NC(=S)N1CCC(N2CCCCC2)CC1 | -37 | 3 | -4% | 6.5 | 1

From PubChem BioAssay

Only part of the results is shown; the hit share may differ from the screen's.
